ClpP mod = qHTS Assay for Activators of ClpP; 340,000 tested, 1.9% active; Potency, µM (series often up to 57.5 µM), for inactives: at the top dose activity change, negative = active; purified B. subtilis ClpP, FRET peptide cleavage, 20 min; ATP-dependent Clp protease proteolytic subunit (Bacillus subtilis (strain 168)), P80244; AID 651965, 2013; active = well fitted falling curve with a large enough effect; inconclusive = small, poorly fitted or top-dose-only effect; inactive = no such curve, though single readings can be large or run the other way; further: potency means the concentration at half of the fitted maximal effect; the source files actives as falling curves though it sought activators and does not explain the sign; nearly all actives have a fitted effect of over 65% in size; many hits overshoot -100%
Target sequence (P80244 whole entry, looked up): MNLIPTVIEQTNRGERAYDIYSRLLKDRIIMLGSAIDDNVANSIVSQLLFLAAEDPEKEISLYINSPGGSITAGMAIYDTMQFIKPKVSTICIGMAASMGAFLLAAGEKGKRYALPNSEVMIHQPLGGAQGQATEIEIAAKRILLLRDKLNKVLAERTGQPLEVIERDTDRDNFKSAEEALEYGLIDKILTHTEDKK
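Purified B. subtilis ClpP, 10 microg/mL final in Tris/HCl pH8 with KCl, BSA, glycerol and Tween-20, cleaved an Abz/nitrotyrosine-quenched decapeptide. Fluorescence (ex 320, em 430) was read at 0 and 20 min at room temperature. Delta was normalized to 5.8 microM ADEP and DMSO/no-enzyme controls.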
Sfp PPTase inh = inhibitors of Bacillus subtilis Sfp phosphopantetheinyl transferase; Potency, µM, for the others: max response, negative = inhibition, actives largely listed as inhibitors; 310,000 tested, 3.5% active; Q9F4F7; Biochemical Sfp PPTase activity, qHTS; active means well fitted inhibition curve with a large enough effect; inconclusive means small, poorly fitted or top-dose-only effect, or another doubt; inactive means no such curve, though single readings can be large or run the other way;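 further: the enzyme is Sfp with the accession as filed and its product quenches rhodamine fluorescence; potency means the concentration at half of the fitted maximal effect; 0% = enzyme reaction without inhibitor and -100% = no enzyme wells; top concentration of the series not given in the record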
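Buffer: 50 mM Hepes-Na pH 7.6, 10 mM MgCl2, 0.01% Nonidet P-40, 0.01% BSA. Enzyme 15 nM, pre-exposed to compound 15 min; substrates then added and fluorescence change tracked over 30 min.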
PINK1 modulator = PINK1 expression modulation; AID 624263; 410,000 tested, 0.2% active; Potency, µM (doses to about 76.6 µM), for inactives: at the top dose activation (PINK1 increase), most hits filed as activators; PINK1 immunofluorescence, high-content cytometry, 24 h; active = well fitted activation curve with a large enough effect; inconclusive = small, poorly fitted or top-dose-only effect; inactive = flat fitted curve, though single readings scatter; cell line not stated here;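 further: potency means the concentration at half of the fitted maximal effect; % of control where 0% means no effect; nearly all actives have a fitted effect of over 65% in size; a mitochondrial uncoupler was the plate control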
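Stable cell line treated 24 h with compounds at 5 concentrations (CCCP controls), then fixed and immunostained for PINK1 plus nuclear and cell stains; PINK1 immunofluorescence quantified by laser-scanning microplate cytometry.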
Menin-MLL FL inh = displaces fluorescein MLL peptide from human menin | Fluorescence polarization, fluorescein-MLL peptide displacement from menin | FP activity change, % at 61.4 µM | 290,000 tested, under 10 active | AID 1766; inconclusive = falling polarisation curve, or a change in total fluorescence; inactive = total fluorescence flat and polarisation flat or rising; no compound was filed as active; the % refers to the polarisation; negative = inhibition;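 further: % of control where 0% means no effect; inhibitors lower the polarisation; unlabelled MLL peptide was the positive control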
TRPML1 inh = human mucolipin-1 channel inhibition; Q9GZU1; TRPML1-inducible cells, Ca2+ dye fluorescence, FDSS; active compounds read low; inhibition of EC80 agonist-evoked calcium signal; activity change, negative = inhibition, % (test concentration not listed); 390,000 tested, 0.02% active; AID 624415; in the data active means activity change below about -50%; inconclusive means about -30% to -50%; inactive means above about -30%;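 further: stimulus is agonist 54-4 at its EC80 concentration; on the % scale 0 is the no-effect control and ±100 the full control effect; compound concentration not given in the record; the text of the record puts the active cut at -80%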
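Calcium fluorescence in TRPML1-DL cells induced overnight with Tet: a 110 s read after compound pin addition, then a 110 s antagonist read after challenge with 54-4 at 4 uM final (EC80).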
TRPV1 PAM = potentiators of human vanilloid receptor 1 (TRPV1). TRPV1-expressing cells, Fluo-8 calcium influx, capsaicin EC20 potentiation; host cell line not named in the record; control for the full effect not named in the record. Q8NER1. AID 540277. potentiation, % at 8.33 µM. 320,000 tested, 0.02% active; active means potentiation above 80%; inconclusive means 30% to 80%; inactive means below 30%; further: 0% is about no effect
Target sequence (Q8NER1 whole entry, looked up): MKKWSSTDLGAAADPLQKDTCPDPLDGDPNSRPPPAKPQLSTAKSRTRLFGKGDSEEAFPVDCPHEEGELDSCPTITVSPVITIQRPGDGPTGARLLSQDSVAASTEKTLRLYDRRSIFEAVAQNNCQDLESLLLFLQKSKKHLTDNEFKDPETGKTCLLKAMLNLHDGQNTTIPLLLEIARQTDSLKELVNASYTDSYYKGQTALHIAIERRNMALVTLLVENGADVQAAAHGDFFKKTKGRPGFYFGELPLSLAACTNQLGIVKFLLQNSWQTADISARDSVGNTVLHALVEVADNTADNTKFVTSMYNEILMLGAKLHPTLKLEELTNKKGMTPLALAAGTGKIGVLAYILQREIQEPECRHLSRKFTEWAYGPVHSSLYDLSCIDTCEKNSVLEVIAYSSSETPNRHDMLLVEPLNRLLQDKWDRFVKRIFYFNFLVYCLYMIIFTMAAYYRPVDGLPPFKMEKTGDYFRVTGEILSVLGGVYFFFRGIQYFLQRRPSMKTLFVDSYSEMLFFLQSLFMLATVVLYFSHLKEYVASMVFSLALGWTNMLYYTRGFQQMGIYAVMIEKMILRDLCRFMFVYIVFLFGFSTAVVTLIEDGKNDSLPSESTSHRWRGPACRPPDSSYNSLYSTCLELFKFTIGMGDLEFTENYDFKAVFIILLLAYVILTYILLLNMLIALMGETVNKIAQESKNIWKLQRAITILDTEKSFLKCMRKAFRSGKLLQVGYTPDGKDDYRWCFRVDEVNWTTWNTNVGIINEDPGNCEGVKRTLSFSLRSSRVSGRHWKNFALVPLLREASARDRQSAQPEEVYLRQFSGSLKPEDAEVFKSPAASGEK
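TRPV1-expressing cells were cultured overnight at 35.5C and loaded with Fluo-8 calcium dye for 40 to 90 min at room temperature. After a 10 s baseline, compound was added and calcium influx was read kinetically for 3 min (ex 480/em 520 nm).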
TRPML1 agonist = agonists of human TRPML1 channel; activation, % (no concentration beside the values); 410,000 tested, 0.12% active; Q9GZU1; TRPML1-expressing cells, Ca2+ dye fluorescence, FDSS; host cell line not named in the record; reference of the full effect not given here; in the data active = activation above about 50%; inconclusive = about 30% to 50%; inactive = below about 30%; further: 0% is about no effect; the text of the record puts the active cut at 80%
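Cells: TRPML1-DL, 1X Tet inducer, ~16 h at 37 degrees C/5% CO2. Dye: ABD Ca8 no-wash + quencher, 45-90 min RT. Read: 10 s baseline, compound add, 110 s agonist phase; 54-4 EC80 (4uM final), 110 s antagonist phase.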
Starred values were filed as active, the others as inactive; ? = inconclusive; . = not tested or not shown; [ ] = dose if it differs, or a comment.

No. | canonical_smiles | TRPML1 agonist | TRPV1 PAM | Menin-MLL FL inh | TRPML1 inh | ClpP mod | PINK1 modulator | Sfp PPTase inh
1 | CC1CC2OC(=O)C3(C)CCCC(C)(C23)C1(O)CCc1ccoc1 (stereo not drawn) | 0.6 | -6 | 4.7 | 58 | . | -0.7% | 19%
2 | COc1ccc(NC(=O)CCCCC#Cc2ccccc2)cc1 | 2.5 | . | -3.0 | 39 | 0.7% | 1.0% | 16%
3 | CC(C)=CCC[C@](C)(O[C@@H]1O[C@H](CO[C@@H]2OC[C@@H](O)[C@H](O)[C@H]2O)[C@@H](O)[C@H](O)[C@H]1O)C1CC[C@]2(C)C1[C@H](O)CC1[C@@]3(C)CC[C@H](O[C@@H]4O[C@H](CO)[C@@H](O)[C@H](O)[C@H]4O)C(C)(C)C3CC[C@]12C (stereo partly drawn) | 0.4 | . | . | -5 | 1.4% | 1.7% | .
4 | Cc1ccc(C(=O)OCC(=O)NCc2ccccc2)s1 | -1.1 | . | . | 7 | 1.1% | 3.8% | .
5 | COC(=O)c1c(NC(=O)/C=C/c2ccc(OC)c(OC)c2)sc2c1CCC2 | -0.5 | . | . | -7 | 3.4% | 0.3% | .
6 | COC(=O)CCCn1nc(NC(=O)COc2ccc(F)cc2)cc1C | 1.0 | -19 | -3.6 | 36 | . | -0.1% | 12%
7 | COc1cc(/C=N/N2C(C)CCCC2C)cc(Br)c1O (stereo not drawn) | 1.0 | -4 | -3.9 | 23 | . | 6.7% | ?
8 | Cn1nc(C(F)(F)F)c(-c2ccc(Br)cc2)c1NC(=O)c1ccco1 | 0.2 | 7 | 1.5 | -17 | 0.3% | 4.4% | 15%
9 | COc1ccc(C(=O)/C=C/Nc2ccccn2)cc1 | 0.2 | 17 | 2.3 | 13 | ? | -0.6%[38.3 µM] | -1%
10 | CCOC(=O)c1c(C)oc2nc(C)nc(Nc3cc(C)ccc3OC)c12 | 0.0 | . | . | -5 | 0.8% | 1.3% | .
11 | COc1ccc(C2CC(c3ccc(F)cc3)n3nc(NS(C)(=O)=O)nc3N2)cc1 (stereo not drawn) | 0.2 | 13 | -0.6 | -3 | . | 0.5% | 19%
12 | CCOC(=O)C1=NN(C(=O)c2ccc(C)cc2)C(O)(c2ccc(Cl)cc2)C1 (stereo not drawn) | ? | -1 | 10 | 10 | 1.6% | -0.1% | ?
13 | COc1cc(NC(=O)CCS(=O)(=O)c2ccc3c(c2)oc(=O)n3C)cc(OC)c1 | 0.3 | -8 | . | -9 | 1.3% | -1.2% | 17%
14 | CC(C)(C)c1nn(-c2ccccc2)c2[nH]c(=O)c(CNc3ccc4c(c3)OCCO4)cc12 | 0.6 | -1 | 2.7 | 14 | -5.0% | . | 9%
15 | CCOC(=O)N1CCN(S(=O)(=O)N2CCCC(C(=O)NCCc3ccc(OCC)c(OCC)c3)C2)CC1 (stereo not drawn) | -0.7 | 23 | -3.7 | 6 | -0.2% | -0.1% | 18%
16 | COc1ccc(N(CC(=O)NCc2ccccc2)S(=O)(=O)c2c(C)nn(C)c2C)cc1 | 0.4 | 0 | 3.4 | 4 | -0.8% | -1.6% | 16%
17 | Cc1ccc(-c2noc(-c3ccccc3C(=O)NCC3CCCO3)n2)cc1 (stereo not drawn) | -1.1 | -9 | 0.5 | -19 | -0.4% | 2.0% | 11%
18 | CC(C)(C)OC(=O)N[C@@H](Cc1ccccc1)c1nnc(S(=O)(=O)Cc2ccccc2)o1 | . | -17 | 1.4 | . | . | . | 8.9µM*
19 | CCOc1ccsc1C(=O)OC | 0.0 | 2 | 0.0 | 1 | 0.2% | -1.9% | 10%
20 | COc1cc(OC)cc(-c2c(-c3cccs3)c3cc(-c4ccc(C(N)=O)cc4)ccc3n2C)c1 | -0.3 | . | . | 21 | 4.2% | 0.8% | .
21 | COc1cc(/C=N/NC(=O)CCC(=O)NC2CCCCC2)ccc1C | -0.1 | 8 | 0.8 | -5 | . | 3.1% | 19%
22 | COc1cccc(/C=N/NC(=O)CNC(=O)C(c2ccccc2)c2ccccc2)c1O | 0.0 | -17 | -0.3 | 11 | . | 0.4% | 1%
23 | COc1ccc(S(=O)(=O)N2CCCCC2c2cc(C(=O)NCc3ccc(F)cc3)no2)cc1 (stereo not drawn) | -0.8 | . | . | . | 0.1% | 1.9% | .
24 | CCN1CCN(CCCN(Cc2ccco2)C(=S)Nc2cccc(Cl)c2C)CC1 | -0.5 | 7 | -2.2 | 7 | . | 1.8% | -1%
25 | CC(=O)OCCn1c2nc(=O)[nH]c(=O)c-2nc2cc(C)c(C)cc21 | 117* | -21 | ? | -22 | 0.4% | 1.0% | 7%
26 | Cc1c(C)c2c(OCC(=O)NCc3ccccn3)cc3c(c2oc1=O)CCC(C)(C)O3 | . | -22 | -2.6 | . | 4.1% | 2.1% | -6%
27 | COc1ccccc1CCC(=O)Nc1ccc2c(c1)CN(CCCn1cccn1)CC2 | -0.6 | 3 | . | -7 | -4.2% | -0.5% | -3%
28 | Cc1ccc(OCC(=O)Nc2ccc3c(c2)ncn3C)cc1 | -0.2 | . | . | 14 | . | -1.3% | .
29 | CCN(Cc1ccccc1)C(=O)/C=C/c1ccccc1[N+](=O)[O-] | 2.1 | -20 | 0.3 | -11 | -0.2% | 1.5% | 18%
30 | Cc1ccc(NC(=O)N2CCN(c3ccccn3)CC2)cc1 | 2.7 | 6 | 4.3 | -18 | ? | -0.4%[38.3 µM] | -4%

No. | canonical_smiles | TRPML1 agonist | TRPV1 PAM | Menin-MLL FL inh | TRPML1 inh | ClpP mod | PINK1 modulator | Sfp PPTase inh
31 | CSc1nn(-c2ccc(C(=O)OC(C(=O)NC(N)=O)C(C)C)cc2)c(=S)s1 (stereo not drawn) | 1.8 | 22 | 2.5 | 2 | . | -1.6% | 0%
32 | CC(NC(=O)CN1C(=O)NC2(CCCCC2C)C1=O)c1ccccc1 (stereo not drawn) | 0.6 | -1 | . | -12 | -0.3% | 4.0% | .
33 | Cc1ccc(CSCC(=O)Nc2ccccc2)cc1 | 1.8 | -23 | 0.3 | -5 | . | 3.2% | -6%
34 | NNC(=O)c1cccc(COc2ccccc2Br)c1 | 3.7 | -13 | 0.5 | 8 | -1.2% | 1.7% | 2%
35 | Cc1ccc(NC(=O)Cc2ccc([N+](=O)[O-])cc2)c(Br)c1 | -1.0 | -2 | . | -1 | -3.7% | 8.5% | -6%
36 | CCOC(=O)c1[nH]c(C)c(CCC(=O)N2CCN(c3cccc(C)c3C)CC2)c1C | 1.5 | . | . | -4 | 2.6% | 3.0% | .
37 | COc1ccc(N2C(=O)CCC(C(=O)NCc3ccccn3)C2c2ccc(OC)c(OC)c2)cc1 (stereo not drawn) | -0.1 | ? | 2.9 | 26 | -0.9% | 4.8% | 4%
38 | C[C@H](NC(=O)c1nc[nH]c1C(=O)N(C)Cc1ccccc1)c1ccccc1 | 0.8 | 18 | . | -14 | -1.3% | 0.1% | .
39 | CCOC(=O)N1CCN(C(=O)COc2ccc(S(=O)(=O)NC3CCCCC3)cc2C)CC1 | 0.3 | 6 | 0.2 | -5 | -0.9% | 1.9% | 0%
40 | O=C(CCNS(=O)(=O)c1ccccc1F)N1CCN(C/C=C/c2ccccc2)CC1 | 0.7 | -1 | . | -2 | . | -1.5% | .
41 | CCN(CC(=O)Nc1c(F)cccc1F)C(=O)CCCN1C(=O)c2ccccc2C1=O | -0.2 | . | . | 10 | -5.7% | 0.6% | .
42 | CCN(Cc1ccccc1)S(=O)(=O)c1ccc2c(c1)NC(=O)CC(=O)N2 | 0.4 | 0 | -6.1 | -11 | 0.9% | 0.5% | -3%
43 | COC(=O)c1c(NC(=O)c2ccc(S(=O)(=O)N(C)C3CCCCC3)cc2)sc2c1CCN(C)C2 | 7.9 | . | . | -26 | -8.5% | 4.5% | .
44 | CC1(C(=O)NS(=O)(=O)c2ccc(Cl)cc2)CCN1C(=O)CCc1ccccc1 (stereo not drawn) | -0.4 | . | . | . | 1.2% | 1.4% | .
45 | CCc1ccc(OC(=O)Nc2ccccc2)cc1 | 0.0 | 2 | 2.5 | -5 | . | 5.4% | 17%
46 | Cc1ccc(NC(=O)CN(C)C(=O)c2cc(S(=O)(=O)N(C)C)ccc2N2CCCC2)cc1 | -0.5 | -6 | . | -6 | -0.3% | 1.6% | .
47 | Cc1ccc(N2CCN(C(=O)Cn3ncc4c([nH]c5ccc(C)cc54)c3=O)CC2)c(C)c1 | 3.0 | . | . | -7 | -3.4% | 3.1% | .
48 | Clc1cccc(-c2nc(NCc3cccnc3)c3ccccc3n2)c1 | 1.9 | 25 | ? | -6 | -1.3% | 3.3%[38.3 µM] | -5%
49 | C[C@]12c3[nH]c4ccccc4c3CCN1C(=O)C(CC(=O)NCC13CC4CC(CC(C4)C1)C3)C[C@@H]2C(=O)N1CCCCC1 (stereo partly drawn) | 1.8 | . | . | -1 | -2.2% | ? | .
50 | O=C(NN=C(Cc1ccccc1)Cc1ccccc1)c1ccc(F)cc1 | 0.1 | -19 | 3.0 | -13 | -0.6% | 1.8% | 0%
51 | C=CCOc1c(CNc2ccc(C(=O)O)cc2)cccc1OCC | 0.1 | 0 | 2.4 | -17 | -12% | 1.2%[38.3 µM] | 23%
52 | O=C(NCCCc1nc2ccccc2n1CCCOc1ccccc1)C1CCCCC1 | -0.4 | . | . | . | -0.4% | -0.6% | .
53 | CC(=O)Nc1ccc(S(=O)(=O)NC2(C(F)(F)F)C(=O)Nc3c2c(=O)[nH]c(=O)n3Cc2ccccc2)cc1 (stereo not drawn) | 0.1 | -9 | 3.8 | ? | -4.5% | -1.0% | 3%
54 | CC(NS(=O)(=O)c1ccccc1)C(=O)Nc1ccc2c(c1)OCCO2 (stereo not drawn) | 0.2 | 4 | . | -11 | 2.9% | -0.5% | 6%
55 | C=C(C)CSc1nc2sc3c(c2c(=O)n1-c1ccccc1)CCC(C)C3 (stereo not drawn) | -0.1 | . | . | -7 | -0.5% | 7.3% | .
56 | CCN1C(=O)c2ccccc2Sc2ccc(C(=O)NCCCN3CCOCC3)cc21 | 0.0 | -2 | 1.6 | -12 | . | -0.2% | 16%
57 | CCC1CCC2(CC1)NNC(=S)NN2 | 0.2 | -2 | 0.3 | 22 | -2.8% | -1.7% | 56µM*
58 | COc1ccc(-n2c(C)c(C)c3c(NCCN(C)C)ncnc32)cc1 | . | 4 | 1.4 | . | -17% | -0.2% | 2%

Assay outcomes (PubChem)

Random draw from the library; 4.4% or so of the library scored in one or more.
